miR-21 FLuc = miR-21 reporter, rising signal | HeLa miR-21 FLuc reporter, luciferase, 48 h | Potency, µM (series often up to 38.3 µM), for inactives: at the top dose reporter change, positive = more light | 340,000 tested, under 10 active | AID 2288; active = well fitted rising curve with a large enough effect; inconclusive = small, poorly fitted or top-dose-only effect; inactive = no such curve, though single readings can be large or run the other way;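 note: % of control where 0% means no effect; miR-21 action dims this reporter so a rising signal means less miR-21 action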
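HeLa cells stably expressing CMV-driven firefly luciferase with a downstream miR-21 binding sequence, endogenously expressing miR-21, were treated with titrations (up to about 40uM final) for 48 hours at 37 degree Celsius. Luciferase luminescence was read after lysis.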
Starred values were filed as active, the others as inactive; ? = inconclusive. The list is partial; rates above refer to the full screens.

SMILES	miR-21 FLuc
CCOC(=O)c1cccc(NC(=O)CCn2c(-c3ccc(F)cc3)cc(C(=O)OCC)c2C)c1	23%
Cc1cccc(NC(=O)c2cc3c(=O)n(Cc4ccco4)ccc3nc2C)c1	9%
CCOc1ccc(CC(=O)N2CCc3cc(OC)c(OC)cc3C2COc2ccc3c(C)cc(=O)oc3c2)cc1 (stereo not drawn)	-18%
Cc1ccc(-n2nc(C)c3nc(CCC(=O)Nc4ccc(F)cc4)c(=O)n(C)c32)cc1	-4%
COc1ccc(NC(=O)N2CCC(n3c(C)nc4cccnc43)CC2)cc1OC	-6%
C=CCc1cccc2cc(-c3nc4ccc(C)cc4[nH]3)c(=O)oc12	-49%
COc1cccc(NC(=O)C(Cc2ccccc2)NS(=O)(=O)c2ccc3c(c2)c(=O)n(C)c(=O)n3C)c1 (stereo not drawn)	-1%
COc1ccc(NC(=O)c2ncoc2-c2ccco2)cc1Cl	-24%
COc1ccc(CNC(=O)CCCN2C(=O)CSc3c2c(C)nn3-c2ccccc2)c(OC)c1	0%
COc1ccc(-c2nc3cc(NC(=O)c4ccc(C)cc4)ccc3o2)cc1Cl	-10%
COc1cccc2c1Oc1ncccc1N(c1ccc(C(=O)NCc3ccccc3C)s1)C2	4%
CCCn1c(=O)c2sccc2n2c(CCCC(=O)NCCOC)nnc12	2%
CCOc1ccc(N(CC(=O)Nc2ccccc2CC)S(=O)(=O)c2c(C)noc2C)cc1	27%
Cc1ccc(S(=O)(=O)Cc2ccc(C(=O)N3CCN(c4cccc(Cl)c4)CC3)o2)cc1	?
COc1ccccc1-c1csc(-n2ncc(C#N)c2N)n1	-28%
CCOc1cc(CNC(=O)Cn2c(-c3cccs3)cc3cc(F)ccc32)ccc1OC	-19%
O=C(CSc1ccccc1)N1CCc2c([nH]c3ccccc23)C1c1ccc(F)cc1 (stereo not drawn)	28%
COc1ccccc1CNC(=O)C(CC(C)C)N1Cc2ccccc2C1=O (stereo not drawn)	-1%
CCc1cccc(NC(=O)Cn2c(=O)n(CC3CCC(C(=O)NC)CC3)c(=O)c3sccc32)c1 (stereo not drawn)	-2%
Cc1ccc(S(=O)(=O)Cc2ccc(C(=O)NCCc3ccc(Cl)cc3)o2)cc1	22%
Cc1ccc(-n2c(=O)c3oc4ccccc4c3n(Cc3ccccc3F)c2=O)cc1C	-4%
COc1ccc(-c2c(C)nn3c(C(F)(F)F)cc(-c4ccc(C)cc4)nc23)cc1	2%
Cc1nc2c(c(C)nn2-c2ccccc2)c(C)c1CCC(=O)NCCc1ccc(Cl)cc1	-9%
O=C(CSc1nc2ccccc2c2nc(-c3ccccc3)nn12)Nc1ccc(Br)cc1	1%
O=C(Cn1c(=O)n(Cc2ccco2)c(=O)c2ccc(C(=O)NC3CCCC3)cc21)Nc1ccc(F)cc1	-7%
O=C(COCc1cc(-c2ccc(F)cc2)on1)Nc1cc(F)ccc1F	-10%
Cc1ccc(-n2nc(C)c3c(C)c(CCC(=O)NCc4ccccc4Cl)c(C)nc32)cc1	-6%
CCOc1ccc(N(CC(=O)Nc2ccc3c(c2)OCO3)S(=O)(=O)c2ccccc2)cc1	0%
Fc1ccc(CSc2nncn3c2cc2occc23)c(Cl)c1	-21%
Cc1cccc(N2CCN(CCCNC(=O)Cn3ncc4c([nH]c5ccccc54)c3=O)CC2C)c1 (stereo not drawn)	-2%
Cc1ccc(-n2nc(CO)c(C(=O)NCc3cccnc3)n2)cc1C	27%
O=C(Cn1ncc2ccsc2c1=O)N1CCN(c2ccccc2)CC1	-5%
COc1ccc(Cn2c(C(=O)O)c(CNCc3cccc(OC)c3)c3ccc(C)cc32)cc1	26%
CCOc1ccc(-c2ncnn2-c2sc3c(c2C#N)CCCCC3)cc1	-39%
Clc1ccc(CCNC(c2nnc(-c3ccccc3)o2)c2ccccc2Cl)cc1 (stereo not drawn)	18%
Fc1ccc(-n2ncc3c(Nc4cccc(Cl)c4)ncnc32)cc1	-12%
COc1cccc(NC(=O)c2oc3ccccc3c2NC(=O)c2cc3ccccc3o2)c1	-6%
Cc1ccc(-n2ncc(C(=O)Nc3ccc4c(c3)OCO4)c2C2CCN(C(=O)OC(C)(C)C)CC2)cc1	13%
O=C(NCc1cccc(F)c1)C1CCN(c2nc3ccccc3nc2C(F)(F)F)CC1	-1%
CCCCN(C)S(=O)(=O)c1ccc(C(=O)Nc2sc3c(c2C(N)=O)CC(C)(C)NC3(C)C)cc1	-1%
CS(=O)(=O)c1ccc(-c2nnc(NC(=O)c3ccc4c(c3)OCCO4)o2)cc1	0%
CCc1ccc(CNC(=O)C2CCCN(c3nnc(C)c4c(C)n(-c5ccc(OC)cc5)nc34)C2)cc1 (stereo not drawn)	26%
Cc1ccc2nc(-c3ccc(F)cc3)c(NC(C)(C)CC(C)(C)C)n2c1	-2%
COc1cc(Nc2ncnc3onc(-c4ccc(Cl)cc4)c23)cc(OC)c1	13%
Cc1ccc2nc(-c3c[nH]c4ccccc34)c(Nc3ccccc3C)n2c1	-42%
CCn1cc(C(=O)NCc2ccccc2Cl)c(=O)c2cc(S(=O)(=O)N3CCCCCC3)ccc21	2%
O=C1c2ccccc2C(=O)C1(c1ccccc1)N1CCN(c2cccc(C(F)(F)F)c2)CC1	14%
CCOc1cc(CNC(=O)C2COc3ccccc3C2)cc(OCC)c1OCC (stereo not drawn)	-4%

Some of the entries so far, comma-delimited.
SMILES,miR-21 FLuc
COc1cc(Nc2ncnc3onc(-c4ccc(Cl)cc4)c23)cc(OC)c1,13%
Cc1ccc2nc(-c3c[nH]c4ccccc34)c(Nc3ccccc3C)n2c1,-42%
CCn1cc(C(=O)NCc2ccccc2Cl)c(=O)c2cc(S(=O)(=O)N3CCCCCC3)ccc21,2%
O=C1c2ccccc2C(=O)C1(c1ccccc1)N1CCN(c2cccc(C(F)(F)F)c2)CC1,14%
CCOc1cc(CNC(=O)C2COc3ccccc3C2)cc(OCC)c1OCC (stereo not drawn),-4%

The results go on:
SMILES	miR-21 FLuc
CCC(C)NC(=O)c1[nH]c2cc(C)ccc2c1Sc1ccc(Cl)cc1 (stereo not drawn)	-4%
CC(C)c1ccccc1NC(=O)Cn1cnc2c1c(=O)n(C)c(=O)n2C	0%
CCC(=O)Nc1ccccc1-c1nc2ccccc2n(C(C)C(=O)Nc2ccc(OC)cc2)c1=O (stereo not drawn)	7%
COc1ccc(-c2nc(S(=O)(=O)c3ccc(C)cc3)c(N3CCCCC3)o2)cc1	0%
CCOC(=O)c1[nH]c2c(c1Cc1ccccc1)C(=O)CC(c1ccc(OC)cc1)C2 (stereo not drawn)	23%
Cc1ccc(CCNC(=O)c2cn(C)c3ccc(S(=O)(=O)N4CCCCC4)cc3c2=O)cc1	-9%
COc1ccc(-c2cc(C(F)(F)F)nc(SCC(=O)NCc3ccc(F)cc3)n2)cc1	-1%
Cc1ccccc1CN1C(=O)c2ccccc2S(=O)c2ccc(C(=O)N3CCOCC3)cc21 (stereo not drawn)	0%
CCCn1ccc2c(OCC(=O)Nc3cc(C)ccc3C)cccc2c1=O	?
Cc1ccc(Cl)cc1-n1ncc2c(NCCCn3ccnc3)ncnc21	1%
Cc1oc2ccc(O)c(CN3CCOCC3)c2c1C(=O)Nc1ccccc1	-6%
COc1cc(OC)c(NS(=O)(=O)c2cc3c(cc2C)NC(=O)CO3)cc1Cl	0%
COc1ccc(-c2nc3ccc(NS(=O)(=O)c4ccc(Cl)cc4)cc3o2)cc1	-16%
O=C(NCc1ccccc1Cl)C1CCC(CNS(=O)(=O)c2ccc(Cl)cc2)CC1 (stereo not drawn)	-7%
Cc1ccc(C)c(NC(=O)CN2C(=O)C(C)(C)c3ccccc32)c1	-7%
Cc1ccc(C(=O)Nc2cc3c(cc2C)n(C)c(=O)c(=O)n3C)cc1	0%
CCOc1ccc(NC(=O)CSC2=Nc3ccccc3C3=NC(CCC(=O)NCc4ccccc4)C(=O)N23)cc1 (stereo not drawn)	-2%
C=Cc1ccc(Cn2c(C(=O)O)c(CNCc3ccccc3)c3ccc(OC)cc32)cc1	9%
COc1cccc(NC(=O)Cn2c(=O)n(-c3ccc(Cl)cc3)c(=O)c3sc4ccccc4c32)c1	-19%
Cc1ccc(Cl)cc1N1CCN(C(=O)c2noc3c2CCCC3)CC1	?
CSc1ccc(Cn2nnc(C(=O)Nc3ccc(C)cc3Cl)c2N)cc1	-29%
CCOc1ccc(S(=O)(=O)NCCc2sc(-c3ccc(C)cc3)nc2C)cc1	-4%
CCOC(=O)c1ccc(NC(=O)c2c(NCc3cccs3)sc3c2CCCC3)cc1	-4%
CCCCSCCCNC(=O)C1CCC(CNS(=O)(=O)c2c(C)cc(C)cc2C)CC1 (stereo not drawn)	-8%

Ordered by SMILES length (highest first): some entries from above
SMILES	miR-21 FLuc
COc1cccc(NC(=O)Cn2c(=O)n(-c3ccc(Cl)cc3)c(=O)c3sc4ccccc4c32)c1	-19%
C=Cc1ccc(Cn2c(C(=O)O)c(CNCc3ccccc3)c3ccc(OC)cc32)cc1	9%
O=C(NCc1ccccc1Cl)C1CCC(CNS(=O)(=O)c2ccc(Cl)cc2)CC1 (stereo not drawn)	-7%
CSc1ccc(Cn2nnc(C(=O)Nc3ccc(C)cc3Cl)c2N)cc1	-29%

Remaining list, next part
SMILES	miR-21 FLuc
CCN1C(=NCC(C)C)N[C@@H](c2ccccc2)[C@H](C(=O)OC)[C@H]1C	-2%
Cc1ccc(-c2nc3ncccc3o2)cc1NC(=O)c1ccccc1Br	-7%
CCn1cc(C(=O)N(C)Cc2ccccc2)c(=O)c2cc(S(=O)(=O)N3CCCCCC3)ccc21	-11%
CC(C)CNC(=O)N1CCN(S(=O)(=O)c2ccc3c(ccn3C)c2)CC1	-1%
N#Cc1ccccc1Cn1c(=O)n(-c2ccccc2)c(=O)c2c3c(sc21)CCC3	3%
Cc1ccc(Cl)cc1N1CCN(C(=O)c2sc3nc4n(c(=O)c3c2C)CCC4)CC1	-18%
CCOC(=O)N1CCC(NC(=O)c2c(C)nn(-c3ccc(C)cc3)c2-n2cccc2)CC1	-1%
Cc1c(C(=O)NCc2ccccc2)oc2c1-c1[nH]ncc1CC2	-2%
Cn1c(=O)c2c(n3c4ccccc4nc13)NC(=O)CC2c1cccc(F)c1 (stereo not drawn)	-5%
Cc1cccc(NC(=O)CCc2c(C)nc3nc(CNC(=O)c4cccc(F)c4)nn3c2C)c1	-2%
Cc1c(CNCCc2ccc(S(N)(=O)=O)cc2)c(C(=O)O)c(C)n1Cc1ccc(Cl)cc1	-2%
Cc1ccc(NC(=O)[C@H](Cc2ccccc2)N2Cc3ccccc3C2=O)cc1F	-2%

Exported as a markdown table: entries from further up
| molecule | miR-21 FLuc |
| --- | --- |
| Cc1ccc(Cl)cc1N1CCN(C(=O)c2sc3nc4n(c(=O)c3c2C)CCC4)CC1 | -18% |
| Cc1cccc(NC(=O)CCc2c(C)nc3nc(CNC(=O)c4cccc(F)c4)nn3c2C)c1 | -2% |
| CC(C)CNC(=O)N1CCN(S(=O)(=O)c2ccc3c(ccn3C)c2)CC1 | -1% |
| Cc1c(C(=O)NCc2ccccc2)oc2c1-c1[nH]ncc1CC2 | -2% |

Next structures.
SMILES	miR-21 FLuc
Cc1nc(-c2ccccc2)sc1CCNS(=O)(=O)c1ccccc1	-12%
Cn1cc(S(=O)(=O)N2CCCCCC2)cc1C(=O)NCc1ccccc1Cl	17%
O=C(CSc1nnc2ccc3ccccc3n12)c1ccc(F)cc1	-72%
CCOC(=O)c1ccc2oc(=O)n(Cc3ccccc3)c2c1	0%
Cc1ccc2c(=O)cc(C(=O)Nc3ccc(S(=O)(=O)N(C)Cc4ccccc4)cc3)oc2c1C	20%
Cc1ccc(Cn2c(C(C)NC(=O)c3ccccc3)nc3ccccc32)cc1 (stereo not drawn)	0%
CCc1ccc(NS(=O)(=O)c2ccc3[nH]cc(C(=O)NC4CCCC4)c(=O)c3c2)cc1	?
O=C(Cn1cnc2c(oc3ccccc32)c1=O)Nc1ccc(OC(F)(F)F)cc1	0%
Cc1ccc(C(=O)c2cn(CC(=O)NCc3ccccc3Cl)c3nc(C)ccc3c2=O)cc1	1%
Cc1ccc(CCNC(=O)c2cn(C)c3ccc(S(=O)(=O)N4CCC(C)CC4)cc3c2=O)cc1	-2%
COc1ccc(-c2nc(C)c(CCNC(=O)C(=O)Nc3ccccc3F)s2)cc1	-9%
Cn1c(-c2ccc(S(=O)(=O)N3CCCC3)cc2)csc1=Nc1ccc(Cl)c(Cl)c1	9%
COc1ccc(-n2nc3c(N4CCC(C(=O)NCc5cccc(F)c5)CC4)nnc(C)c3c2C)cc1	-1%
COCCCNC(=O)c1nn(C)c2c1CS(=O)(=O)c1ccccc1-2	-2%
Cc1ccc(CNC(=O)c2sc3nc[nH]c(=O)c3c2C)cc1	-7%
CC(C)Cn1cc(NC(=O)N2CCN(c3ccccc3F)CC2)c2ccccc2c1=O	0%
CCOc1ccc(-n2cc(-c3ccccc3)c3c(NC4CCCC4)ncnc32)cc1	3%
COc1ccc2c(c1)c1c(c(=O)n(-c3ccc(F)c(Cl)c3)c(=O)n1Cc1ccccc1C)n2C	9%
CCCN1CCN(CC2=C(C(=O)OCC)C(c3ccc(OC(C)C)cc3)NC(=O)N2)CC1 (stereo not drawn)	1%
COc1ccccc1N1CCN(c2ncnc3c2c(-c2ccccc2)cn3-c2cccc(Cl)c2)CC1	1%
Cc1ccc(S(=O)(=O)c2nnn3c2nc(NCc2ccc4c(c2)OCO4)c2sccc23)cc1	-25%
CC1CCC(NC(=O)c2ccc3c(c2)N(Cc2ccccc2F)C(=O)c2ccccc2S3=O)CC1 (stereo not drawn)	-39%
Cc1cc(C)c2c(N)c(C(=O)Nc3ccccc3C(F)(F)F)sc2n1	-57%
O=C1CN(C(=O)Cc2ccccc2)C(c2ccc(F)cc2)c2cc(Br)ccc2N1 (stereo not drawn)	22%
Cc1ccc(-n2ncc3c(Nc4ccc(Oc5ccccc5)cc4)ncnc32)cc1	-13%
CCc1cccc(-n2c(=O)c3cccnc3n2CC(=O)NCc2ccccc2Cl)c1	-1%
Cc1ccc(C)c(N2CCN(C(=O)C3CCN(S(=O)(=O)c4cn(C)cn4)CC3)CC2)c1	-1%

Source: PubChem
